UUG fidelity: modulators of yeast start codon fidelity, primary screen, whole organism, S. cerevisiae, single point, plate reader; S. cerevisiae UUG-firefly luciferase reporter, luminescence/redox ratio; activity score, % at 18.7 µM; hit rate 0.13% among 350,000;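 active = replicate mean at a twofold rise or more, about +100% in these data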;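 also: firefly luciferase made from a UUG start codon reports start codon fidelity; reporter light over untreated wells divided by growth signal over untreated wells; some hits fall short of that in this replicate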
eIF4H inh: human eIF4H binding inhibitors, primary screen, translation initiation inhibitor project, biochemical, uHTS, fluorescence polarization; Eukaryotic translation initiation factor 4H (Homo sapiens), Q15056; eIF4H fluorescence polarization binding assay; inhibition, % at 35 µM; hit rate 0.94% among 290,000; AID 2012, 2009;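 active = 50% or more with normal probe brightness, or confirmed in later tests; inconclusive = above 50% with abnormal brightness, or retests that disagree; inactive = below 50% or failed in later tests; about a fifth of its hits are not listed in these tables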;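 also: calls also rest on retests at 20 µM and on dose response follow-up; 0% = protein and probe with vehicle and 100% = probe without protein; strong numbers were not always called active; many hits fall short of the cut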
CSC inhib: cancer stem cell viability inhibitors, primary screen, luminescence; cancer stem cell-like cells viability; inhibition, % at 7.5 µM; hit rate 1.1% among 300,000;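 active = mean at 75% or more and at least half the replicates too; inconclusive = mean and replicates disagree; tested in HMLE shEcad cells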;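 also: 0% = median of negative and 100% = median of positive control wells; the first replicate is given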
Env fusion inh: inhibitors of HIV-1 Env-driven cell-cell fusion, primary screen, HeLa-JRFL effector, CEM21 target cells, luciferase; inhibition, % at 12.3 µM; hit rate 1.1% among 360,000; AID 651610, 2012;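 active = mean replicate inhibition score of at least 50 and every replicate individually at or above 50; inconclusive = only one of the two criteria met; inactive = mean below 50 and not all replicates reaching 50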;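 also: 0% = plate neutral controls and 100% = maraviroc near 300 nM; one replicate is shown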
MT1-MMP act inh: blockers of MT1-MMP proenzyme processing, primary screen, HT1080 RFP-PRO-GFP cells, GFP/RFP fluorescence | Matrix metalloproteinase-14 (Homo sapiens), P50281 | GFP/RFP ratio fluorescence, overnight; percent of plate control window, DMSO zero | GFP/RFP ratio change, % at 20 µM | hit rate 0.061% among 360,000;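 active = GFP/RFP ratio change of at least 30% with cell ATP level not reduced by more than half and red fluorescence within 50% of control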; also: strong numbers were not always called active
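Test system: HT1080 cells expressing an RFP-PRO-GFP fluorescent reporter construct / Compound dosing: single-point 20 µM compound, 1% DMSO / Schedule: cells overnight before dosing, compound overnight, 37 °C, 5% CO2 / Evaluation: GFP/RFP fluorescence ratio / Control set: DMSO and RFP-L50D-GFP cell wells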
PABP FP inh: PABP poly(A) RNA binding inhibitors, primary screen, biochemical, fluorescence polarization, uHTS; Polyadenylate-binding protein 1 (Homo sapiens), P11940; inhibition, % at 35 µM; hit rate 1% among 290,000;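 active = 50% or more with normal probe brightness, or confirmed in later tests; inconclusive = above 50% with abnormal brightness, or retests that disagree; inactive = below 50% or failed in later tests; about a fifth of its hits are not listed in these tables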;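 also: calls also rest on retests at 20 µM and on dose response follow-up; controls were probe without protein and protein plus probe with vehicle; some compounds called inactive have numbers as strong as hits; many hits fall short of the cut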
Target sequence (P11940 whole entry, looked up): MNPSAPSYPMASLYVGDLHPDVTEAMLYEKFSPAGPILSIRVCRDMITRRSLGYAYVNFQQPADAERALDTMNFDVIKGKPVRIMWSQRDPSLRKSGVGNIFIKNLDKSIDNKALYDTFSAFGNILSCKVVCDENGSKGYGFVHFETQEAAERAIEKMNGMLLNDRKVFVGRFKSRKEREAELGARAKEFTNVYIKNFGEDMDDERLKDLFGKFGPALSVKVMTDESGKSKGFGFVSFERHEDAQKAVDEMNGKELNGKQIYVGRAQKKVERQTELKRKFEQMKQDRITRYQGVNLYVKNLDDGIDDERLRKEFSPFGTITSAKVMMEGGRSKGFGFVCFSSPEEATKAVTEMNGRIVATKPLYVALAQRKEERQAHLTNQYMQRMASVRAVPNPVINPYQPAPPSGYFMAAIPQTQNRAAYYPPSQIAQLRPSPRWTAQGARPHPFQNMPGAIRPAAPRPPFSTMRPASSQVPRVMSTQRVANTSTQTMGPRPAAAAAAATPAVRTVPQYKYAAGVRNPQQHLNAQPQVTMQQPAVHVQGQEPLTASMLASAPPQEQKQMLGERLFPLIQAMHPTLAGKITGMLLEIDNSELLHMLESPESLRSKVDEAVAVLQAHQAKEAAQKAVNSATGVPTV
Rce1 inh: yeast Rce1p protease inhibitors, primary screen, biochemical, fluorescence, cell-free homogeneous | CAAX prenyl protease 2 (Saccharomyces cerevisiae (strain ATCC 204508 / S288c)), Q03530 | yeast membranes, quenched prenylated peptide cleavage fluorescence | calls only | hit rate 0.27% among 290,000;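 active = fall in fluorescence gain of 50% or more versus controls, with final raw signal at or below 3038400; inconclusive = same 50% fall but final raw signal above 3038400; inactive = fall in fluorescence gain under 50%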;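 also: plate controls were neutral control wells for no effect and wells lacking membranes for full effect; tested at 10 µM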
eIF4H inh retest: recorded beside eIF4H inh, whose call it bears; inhibition, %; compound at 20 µM; confirmation average;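 mean of two retest wells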
PABP FP inh retest: second read-out of PABP FP inh, no call of its own (marks repeat the call); inhibition, %; compound at 20 µM; confirmation repeats;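 mean of two retest wells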
MT1-MMP act inh RFP: second read-out of MT1-MMP act inh, no call of its own (marks repeat the call); RFP signal change, %; measured here: RFP expression control read;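 0 = vehicle wells; hits needed this value within 50% of zero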
Numbers without * were called inactive; i = inactive; ? = inconclusive; · = no result given.

Start of the data: the first 2 compounds (preview)
SMILES	UUG fidelity	eIF4H inh	CSC inhib	Env fusion inh	MT1-MMP act inh	MT1-MMP act inh RFP	PABP FP inh	Rce1 inh	others
O=C(Cn1c(=S)[nH]c2ccccc2c1=O)NCCc1ccccc1	·	-1.5	0.9	-6.0	3.5	-0.2	-13.6	i
COc1ccc(N2Cc3ccc(C(=O)N/N=C\c4ccc(O)cc4O)cc3C2)cc1	·	64.7*	91.2*	·	·	·	19.7	i	eIF4H inh retest=99.7*;PABP FP inh retest=31.2

This part in full, repeating the preview:
SMILES	UUG fidelity	eIF4H inh	CSC inhib	Env fusion inh	MT1-MMP act inh	MT1-MMP act inh RFP	PABP FP inh	Rce1 inh	others
O=C(Cn1c(=S)[nH]c2ccccc2c1=O)NCCc1ccccc1	·	-1.5	0.9	-6.0	3.5	-0.2	-13.6	i
COc1ccc(N2Cc3ccc(C(=O)N/N=C\c4ccc(O)cc4O)cc3C2)cc1	·	64.7*	91.2*	·	·	·	19.7	i	eIF4H inh retest=99.7*;PABP FP inh retest=31.2
N#CC(c1ccc([N+](=O)[O-])cc1)C(CC(=O)c1ccccc1)c1ccccc1 (stereo unspecified)	-6.1	·	·	?	2.0	-7.5	·	·
CC(C)c1ccc(CN2C(=O)c3ccccc3S2(=O)=O)cc1	-0.8	-17.8	-10.4	-1.9	1.8	0.1	1.9	i
COc1ccc2[nH]c(O)c(N=NC(=N)N)c2c1	·	-3.5	-16.6	-0.2	-4.5	-4.6	4.4	i
COC(=O)CCC(=O)OC1(C)C(=O)C=C2C=C(C3CC3)N(CC(C)C)C=C2C1=O (stereo unspecified)	·	21.8	·	·	·	·	14.1	i
O=C(Nc1c(C(=O)N2CCOCC2)cnn1-c1ccccc1)c1ccccc1F	-11.3	-6.2	2.8	-25.9	5.0	4.2	7.9	i
Cc1nn(Cc2ccc(F)cc2)c(C)c1NC(=O)C1c2ccccc2Oc2ccccc21	-15.1	0.2	18.6	-41.4	-2.5	-7.3	4.4	i
CC(=O)c1cccc(-n2nnnc2SCC(=O)Nc2ccccc2N2CCCCC2)c1	-6.6	-2.4	2.4	·	-12.6	-9.6	-2.9	i
CN(C)c1ccc(CNc2ccccn2)cc1	-20.5	0.6	-6.0	-40.0	2.8	5.4	-5.2	i
CC(C(=O)N1CCc2ccccc2C1)N(c1ccccc1)S(C)(=O)=O (stereo unspecified)	-9.1	5.0	-10.3	-8.5	-0.3	-0.6	-4.1	i
COc1ccc2[nH]c3c(c2c1)CCN1C(=O)C(CC(=O)NCc2ccco2)C[C@H](C(=O)N2CCCCC2)[C@@]31C (stereo partly specified)	-12.1	·	·	11.9	3.5	2.5	·	·
Cc1ccc(S(=O)(=O)C2(C(=O)NCCc3ccccc3)CC2)cc1	-2.5	1.8	7.9	-8.5	-1.3	-2.0	2.5	i
CC(=O)c1c(C)[nH]c(C(=O)Nc2ccc(Cl)cc2)c1C	-8.5	1.1	15.0	-53.2	4.2	-1.2	6.4	i
COc1ccc(C2=NOC(Cn3nc(C(=O)NCc4ccc5c(c4)OCO5)cc3-c3ccccc3)C2)cc1 (stereo unspecified)	-11.0	·	4.9	9.8	5.7	-5.1	·	i
Cc1ccccc1OCCn1cnc2c(N)ncnc21	-13.9	-7.3	-48.5	·	7.1	-11.6	-14.7	i
COc1ccc(NC(=O)Nc2cccc(C)n2)c(OC)c1	8.7	11.9	0.9	-18.5	-3.0	-3.6	-1.4	i
CCCc1cc(=O)n2[nH]c(NCc3c(F)cccc3Cl)nc2n1	-16.6	-3.5	-5.0	·	·	·	5.0	i
CCOC(=O)N1CCN(C(=O)C(C)SCc2ccccc2)CC1 (stereo unspecified)	-2.6	-17.5	-8.5	·	9.8	1.9	-5.1	i
c1ccc2c(Oc3ccc4c(c3)OCO4)nncc2c1	-37.8	-4.8	1.0	·	-5.3	-6.5	1.6	i
CN(C)Cc1c(O)ccc2occ(C(=O)c3ccc(F)cc3)c12	0.6	-4.5	-12.0	13.7	4.8	2.1	-3.1	·
CN(C(=O)C=Cc1ccco1)c1ccccc1	-6.8	·	·	1.4	-4.3	-2.6	·	·
N#Cc1ccc(C(=O)Nc2cccc3ncccc23)c(F)c1	·	-0.3	1.1	-124.0	2.2	-0.9	1.9	i
COc1cccc(CNC(=O)CCc2nnc3ccc(NCCCN4CCCC4=O)nn23)c1	-7.6	1.4	12.8	-22.0	-7.6	-3.2	13.0	i
COCCn1c(-c2cc(OC)c(OC)c(OC)c2)nc2oc3cc(OC)ccc3c(=O)c2c1=O	·	-7.2	-8.2	·	·	·	6.2	i
Other results
SMILES	UUG fidelity	eIF4H inh	CSC inhib	Env fusion inh	MT1-MMP act inh	MT1-MMP act inh RFP	PABP FP inh	Rce1 inh	others
CCOC(=O)c1ccc(NS(=O)(=O)c2ccc3c(c2)CCCN3C(C)=O)cc1	-0.4	-8.3	-19.4	3.1	-0.9	-5.2	-8.4	·
O=C(CC1(O)C(=O)N(Cc2ccccc2)c2ccccc21)c1ccc2c(c1)OCO2 (stereo unspecified)	-3.3	-2.2	-12.7	-10.7	0.5	0.3	0.8	i
O=S(=O)(Nc1ccncc1)c1ccc(Cl)c(Cl)c1	1.4	-4.1	-4.3	8.1	2.4	0.9	-5.2	i
Cn1nc(CC(=O)NCc2cccc3ccccc23)c2ccccc2c1=O	-16.1	-3.8	-6.6	·	-6.8	-22.9	0.7	i
C=CC1C(OC2OC(CO)C(O)C(O)C2O)OC=C(C(=O)OC)C1CC1CC(=O)CC(CC(=O)CCc2ccc(O)cc2)O1 (stereo unspecified)	-14.0	-4.4	-7.3	·	0.0	5.3	-0.9	i
COC(=O)C1CCC(C)(C(=O)Nc2ccccc2)C1(C)C (stereo unspecified)	-15.5	-3.4	-7.1	-51.1	-2.6	0.2	-11.3	i
CCOC(=O)C(Cc1ccccc1)NC(=O)Cn1nnc(-c2ccc(SC)cc2)n1 (stereo unspecified)	-7.5	-1.2	-13.7	57.8	-1.8	-5.4	4.3	i
Oc1ccc(-c2nc3c4c(ncn3n2)-c2ccccc2CC42CCCC2)cc1	·	-5.8	-5.7	·	-5.4	-20.7	6.0	i
CC(=O)NCC1CCN(C(=O)C2CCC(=O)N(CCc3cccc(F)c3)C2)CC1 (stereo unspecified)	-12.8	-5.6	-8.1	3.1	-0.6	4.9	71.8	i	eIF4H inh retest=-2.6;PABP FP inh retest=11.2
CCN(CC)c1ccc(NC2=C(Cl)C(=O)c3ccccc3C2=O)cc1	-25.9	-4.0	105.8*	·	-137.6	-69.8	-4.6	·
CC(C)C[C@H](NC(=O)c1nc[nH]c1C(=O)NC1CCN(C(=O)OC(C)(C)C)CC1)C(=O)OC(C)(C)C	-5.4	14.8	4.7	10.6	-14.3	-6.8	0.1	i
COc1ccccc1Nc1cc(C(=O)NC2CCCC2)c2ccccc2n1	4.4	1.6	-14.4	-0.3	-1.9	-2.2	-0.6	i
Cc1oc2c(Cl)c(Cl)c(O)c(CN(C)C)c2c1C(=O)c1ccc(Cl)cc1	-6.3	-6.0	-19.0	64.2*	-14.6	-8.7	14.8	i
O=C(CC(=O)NCCc1ccccc1)NCCc1ccccc1	-2.5	4.5	10.1	18.9	-2.9	-0.7	6.4	i
CCCCn1nnnc1SCC(=O)Nc1ccc(F)cc1	-8.2	3.3	-3.5	·	3.8	6.7	-10.3	i
COc1cccc(OC)c1C(=O)n1nc(C)cc1C	-22.9	-2.7	9.7	-57.7	3.2	4.6	9.9	i
CC(C)CC(=O)NC(=S)N1CCCCCC1	·	-6.0	4.4	·	2.4	2.5	-11.8	i
CCc1ccc(OC(C)C(=O)N(Cc2ccco2)C2CCS(=O)(=O)C2)cc1 (stereo unspecified)	-15.0	-19.0	1.3	37.7	-2.8	0.3	3.0	i
CCCCOC(=O)C1=C(C)NC2(O)c3ccccc3C(=O)C12O (stereo unspecified)	1.8	-2.2	-4.3	·	1.4	4.8	0.1	i
CCOc1ccc(-n2cc(-c3ccc(OC)c(OC)c3)[nH]c2=S)cc1	·	-1.2	-12.8	13.1	-3.2	-7.0	1.0	i
N#Cc1nc(-c2cccc(Cl)c2)oc1N1CCC(C(N)=O)CC1	-6.6	-8.2	2.0	-8.1	-0.8	-2.3	-6.1	i
Cc1cccc(Nc2nc3c(c(=O)n(C)c(=O)n3C)n2CC(O)CO)c1 (stereo unspecified)	-31.1	3.5	8.3	·	-7.1	-18.1	-5.1	i
CCCOc1ccc(N2C(=O)CC(SCCN)C2=O)cc1 (stereo unspecified)	-50.1	12.1	-16.0	-49.0	11.7	3.5	12.1	i
O=C(Nc1nccs1)c1ccc(S(=O)(=O)NCc2cccs2)cc1	-26.1	3.6	23.6	·	-1.8	-16.0	-5.8	i
CCOc1ccc(/C=N/n2c(C)nc3ccccc3c2=O)cc1	-16.2	12.8	-0.7	·	-0.4	0.1	0.2	i
More entries
SMILES	UUG fidelity	eIF4H inh	CSC inhib	Env fusion inh	MT1-MMP act inh	MT1-MMP act inh RFP	PABP FP inh	Rce1 inh	others
COC(=O)c1ccc(-c2ncc(-c3cccc4ccccc34)o2)cc1	-21.8	0.4	42.5	-78.9	-2.7	0.9	31.4	i
Cc1cc2ccccn2c1C(=O)c1nc(NCc2ccco2)ncc1Cl	-23.5	-7.7	6.2	1.6	-1.0	-7.5	0.3	i
CCOc1c(Cl)cc(C(=O)Nc2ccccc2-c2ccccc2)cc1Cl	-9.4	-8.4	20.9	·	-5.5	-1.9	-9.8	i
COc1ccc2c(c1)CC/C(=C/c1ccncc1)C2=O	-10.4	-4.5	-9.8	·	-0.3	-10.7	-7.6	i
C=CCNC(=O)Cn1nnc(-c2ccc(-c3ccc(OC)cc3)cc2)n1	-14.3	10.1	7.2	-15.4	3.0	-1.1	0.1	i
Cc1ccc(CNC(=O)C2CCN(C(=O)Nc3ccccc3)CC2)cc1	-7.3	-6.2	·	1.0	1.9	0.6	-11.8	i
COC(=O)C1CCN(c2ccc([N+](=O)[O-])cc2)CC1	·	-10.4	·	4.2	4.3	5.5	-5.2	i
CS(=O)c1ccccc1COC(=O)Nc1ccccc1 (stereo unspecified)	·	-6.0	-12.1	·	3.6	-0.2	-6.6	i
Cc1ccc(Cn2c(C)c3cnn(CC(=O)NCc4ccccn4)c(=O)c3c2C)cc1	-14.0	-5.7	4.6	-35.3	-0.9	-3.2	-4.6	i
Cc1nn(C)cc1CNC(=O)CCC(=O)O	-3.3	-2.3	-8.7	·	-1.2	1.9	0.6	i
N#Cc1ccccc1OCC(=O)OCC(=O)c1ccc[nH]1	-19.4	·	-15.5	·	-0.6	2.6	·	·
CCC1(C)Cc2ccccc2C(=O)N1 (stereo unspecified)	-16.1	-4.7	10.6	2.2	-4.1	-0.3	0.1	i
C/C(=N\Nc1ccc([N+](=O)[O-])cc1[N+](=O)[O-])c1ccc(-n2nncc2C(C)(C)C)cc1	8.4	8.3	18.5	36.0	0.7	-9.8	7.6	i
C=CCn1c(NCc2ccccc2O)nc2ccccc21	2.3	1.7	-9.1	1.0	3.6	-2.7	-8.1	i
O=C(Nc1ncccc1O)c1ccc2c(c1)OCO2	-16.2	·	-6.8	-27.1	5.5	4.1	·	i

High-throughput results as filed in PubChem.
